# GLA inh pH 4.5: qHTS Assay for Inhibitors of Human alpha-Galactosidase at pH 4.5. purified enzyme, 4-MU-alpha-Gal fluorescence, pH 4.5. 230,000 tested, under 10 active. activity change, negative = inhibition, % at 105 µM. AID 1467, 2008; inconclusive = small, poorly fitted or top-dose-only inhibition, or a rising curve; inactive = flat fitted curve, though single readings scatter; no compound was filed as active;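 further: 0% = full activity with enzyme and -100% = basal without enzyme; dose as in the result columns while the protocol names 77 µM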
# Rango complex inh: qHTS Assay for Inhibitors of Rango (Ran-regulated importin-beta cargo) - Importin beta complex formation. actives 0.031% (n = 340,000). Potency, µM (titrated, usually from 92.2 µM), for inactives: at the highest dose inhibition of complex formation. Rango CFP/YFP FRET sensor + importin beta, 45 min. AID 540263, 2011. Importin subunit beta-1 (Homo sapiens), Q14974; active = rising FRET ratio curve, often small or poorly fitted; inconclusive = mostly compound fluorescence or quenching in the first reads; inactive = flat curves in all reads;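 further: potency means the concentration at half of the fitted maximal effect; 0% = DMSO wells and 100% = buffer wells lacking importin beta; nearly all actives have a fitted effect of over 15% in size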
# Target sequence (Q14974 whole entry, looked up): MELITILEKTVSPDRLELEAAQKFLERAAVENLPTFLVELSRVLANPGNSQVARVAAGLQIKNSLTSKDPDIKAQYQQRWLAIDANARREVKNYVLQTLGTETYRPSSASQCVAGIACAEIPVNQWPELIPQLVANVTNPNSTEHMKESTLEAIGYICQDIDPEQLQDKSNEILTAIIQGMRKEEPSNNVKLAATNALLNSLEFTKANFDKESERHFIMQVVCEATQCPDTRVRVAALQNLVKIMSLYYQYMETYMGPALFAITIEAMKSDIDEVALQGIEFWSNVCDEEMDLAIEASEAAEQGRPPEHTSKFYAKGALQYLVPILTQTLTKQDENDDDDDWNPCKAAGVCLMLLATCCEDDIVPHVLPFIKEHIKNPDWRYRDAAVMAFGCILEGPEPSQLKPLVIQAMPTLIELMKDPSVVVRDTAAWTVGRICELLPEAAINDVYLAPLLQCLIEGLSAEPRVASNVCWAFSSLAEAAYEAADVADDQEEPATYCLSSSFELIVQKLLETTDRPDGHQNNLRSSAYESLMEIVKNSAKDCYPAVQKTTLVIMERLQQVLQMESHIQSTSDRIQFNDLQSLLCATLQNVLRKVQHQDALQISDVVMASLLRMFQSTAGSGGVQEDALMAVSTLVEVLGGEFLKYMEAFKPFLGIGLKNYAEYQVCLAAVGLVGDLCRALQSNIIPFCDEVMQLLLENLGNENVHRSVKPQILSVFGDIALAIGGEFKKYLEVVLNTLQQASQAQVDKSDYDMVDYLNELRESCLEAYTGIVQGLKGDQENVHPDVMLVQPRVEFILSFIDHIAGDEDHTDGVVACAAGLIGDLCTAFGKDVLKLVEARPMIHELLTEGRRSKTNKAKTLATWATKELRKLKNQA
#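 FRET biosensor (snurportin 1 IBB flanked by EYFP and cerulean), 50 nM, with compound 5 min, then 0.125 microM importin beta in PBS, 1 mM DTT, 0.02% Tween-20, 0.1% BSA. CFP/YFP ratio read after 45 min at room temperature; pre-read flags interference.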
# Rango release inh: qHTS Assay for Inhibitors of RanGTP induced Rango (Ran-regulated importin-beta cargo) - Importin beta complex dissociation | Biochemical FRET Rango-importin beta, RanGTP-induced dissociation | Potency, µM (doses to about 46.1 µM), inactives show top-dose activity change, negative = inhibition | actives 0.071% (n = 340,000) | AID 540253, 2011; active means falling FRET ratio curve, often poorly fitted, with flat reads before Ran was added; inconclusive means other falling curves, or compound fluorescence or quenching; inactive means flat or rising ratio curve;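 further: potency means the concentration at half of the fitted maximal effect; % of control where 0% means no effect; nearly all actives have a fitted effect of over 45% in size; -100% = wells without RanGTP and RCC1; the record marks most hits as doubtful in a second field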
#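 Compounds sat 5 min at room temperature with 0.1 uM Rango biosensor plus 0.25 uM importin beta, then FRET pre-read. RanGTP-RCC1 (0.6 uM Ran, 2mM GTP, 0.2 uM RCC1) added for 45 min, and the CFP/YFP post-read measured blocked complex dissociation.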
# miR-21 FLuc: qHTS Assay for Modulators of miRNAs and/orActivators of miR-21; HeLa miR-21 FLuc reporter, luciferase, 48 h; Potency, µM (series often up to 38.3 µM), for inactives: at the highest dose reporter change, positive = more light; 340,000 tested, under 10 active; active = well fitted rising curve with a large enough effect; inconclusive = small, poorly fitted or top-dose-only effect; inactive = no such curve, though single readings can be large or run the other way;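 further: % of control where 0% means no effect; miR-21 action dims this reporter so a rising signal means less miR-21 action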
#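 Luminescence from a firefly luciferase reporter carrying a miR-21 binding site downstream, stably expressed under a CMV promoter in HeLa cells that make miR-21 endogenously, reports miRNA modulation after 48 h compound exposure up to approximately 40uM final.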
# * = called active by the depositor; ? = inconclusive; . = not tested or not shown; & = joins results of further samples.
Rango release inh	GLA inh pH 4.5	miR-21 FLuc	Rango complex inh	mol
-7%	.	-12%	0.7%	Fc1cccc(/C=N/Nc2ccc(Cl)nn2)c1
27%	0	0%	-0.7%	CCOC(=O)N1CCN(C(=O)N2CCOCC2)CC1
-22%	.	.	0.8%	Cc1c(C(C)CCCO)oc(=O)c2c1Oc1c(C)c(C(C)C[C@@H](C)O)oc(=O)c1C2 (stereo not given in full)
-16%	.	.	-2.6%	COc1ccccc1N1CCN(C(=O)c2cccc(S(=O)(=O)N3CCCCCC3)c2)CC1
2%	4	-5%	0.8%	COc1ccccc1CN(Cc1nc2ccccc2c(=O)[nH]1)C(=O)Nc1ccccc1C
-12%	.	.	0.0%	O=C(Cn1nc(C(=O)O)c2ccccc2c1=O)Nc1cccc(S(=O)(=O)N2CCCCC2)c1
-9%	.	.	-3.5%	Nc1c(C(=O)CSc2nnnn2-c2ccc(O)cc2)c(=O)[nH]c(=O)n1C1CC1
-17%	-12	-1%	-1.8%	Cc1ccc(C)c(NC(=S)NCCN(C2CCCCC2)C2CCCC2)c1
4%	-11	-1%	-2.7%	Cc1ccc(NC(=O)Cc2c[nH]c3ccccc23)cc1S(=O)(=O)N1CCCCCC1
0%	.	.	1.4%	O=C(OCCc1cc2ccccc2c(=O)o1)c1ccc2c(c1)OCO2
-4%	-7	-26%	?	CCOC(=O)C1CCN(c2ncnc3c2oc2ccc(Cl)cc23)CC1
21%	.	-2%	?	Cc1ccc(S(=O)(=O)N2CCN(C(=O)c3ccc4c(c3)OCO4)CC2)cc1
-20%	1	-18%	-3.2%	Oc1ccc(/C(Cc2ccccn2)=N\Nc2ccccc2)c(O)c1
-6%	-11	1%	1.9%	CCOC(=O)C1=C(CNCCc2ccc(Cl)cc2)NC(=O)NC1c1ccc2c(c1)OCO2 (stereo not given)
-1%	5	2%	1.5%	COC(=O)c1cc(NC(=S)N2CCN(c3ccccn3)CC2)cc(C(=O)OC)c1
1%	-9	-27%	-5.4%	COc1ccc(NC(=S)NC2CCCCC2)cn1
6%	0	-12%	-3.8%	O=C(Nc1ccc(CN2CCS(=O)(=O)CC2)cc1)c1ccccc1
-9%	.	.	-3.7%	OC1COC(O)C(O)C1O (stereo not given)
15%	-3	-3%	?	Cc1cc(C)nc(/N=C(/NC(=O)Nc2ccc(Cl)c(Cl)c2)Nc2cccc(Cl)c2)n1
0%	-1	-15%	1.0%	c1ccc(-c2nc(-c3ccncc3)n[nH]2)nc1
10%	.	-6%	5.7%	COc1ccc(CC(=O)NC2CCSc3ccccc32)cc1OC (stereo not given)
7%	-12	-2%	0.9%	Cc1cc(C)[n+](C)n1CC(O)Cn1c2ccccc2c2ccccc21 (stereo not given)
5%	.	.	0.4%	O=C(CNC(=O)c1ccc(Br)o1)NNC(=O)c1ccccc1
5%	.	.	-0.5%	Cc1ccc([N+](=O)[O-])cc1S(=O)(=O)Nc1cccc(S(=O)(=O)NC2=NCCC2)c1
21%	-5	4%	6.2%	CC(=O)c1cccc(NC(=S)NCCc2ccc(Cl)cc2)c1
13%	-4	-9%	-0.7%	Cc1ccc(NC(=O)CS(=O)CC(=O)N(c2ccc(C)cc2)C(C)C(=O)NC2CCCCC2)cc1 (stereo not given)
2%	.	0%	2.3%	NS(=O)(=O)c1ccc(CCNC(=O)C(=O)c2cn(CC(=O)N3CCOCC3)c3ccccc23)cc1
-1%	.	.	?	N#CCCN(C(=O)COC(=O)CCc1nc2ccccc2c(=O)[nH]1)c1ccc(F)cc1
0%	7	-2%	9.8%	CN1C(=O)CC(C(=O)O)SC1=Nc1cc(Cl)c(O)c(Cl)c1 (stereo not given)
26%	0	8%	3.5%	Cc1ccc(Cl)cc1N1CCN(C(=O)C2CCN(S(=O)(=O)c3cccnc3)CC2)CC1

# 7 compounds out of the list, ordered by formula weight, lowest first:
Rango release inh	GLA inh pH 4.5	miR-21 FLuc	Rango complex inh	mol
21%	-5	4%	6.2%	CC(=O)c1cccc(NC(=S)NCCc2ccc(Cl)cc2)c1
7%	-12	-2%	0.9%	Cc1cc(C)[n+](C)n1CC(O)Cn1c2ccccc2c2ccccc21 (stereo not given)
10%	.	-6%	5.7%	COc1ccc(CC(=O)NC2CCSc3ccccc32)cc1OC (stereo not given)
0%	7	-2%	9.8%	CN1C(=O)CC(C(=O)O)SC1=Nc1cc(Cl)c(O)c(Cl)c1 (stereo not given)
26%	0	8%	3.5%	Cc1ccc(Cl)cc1N1CCN(C(=O)C2CCN(S(=O)(=O)c3cccnc3)CC2)CC1
13%	-4	-9%	-0.7%	Cc1ccc(NC(=O)CS(=O)CC(=O)N(c2ccc(C)cc2)C(C)C(=O)NC2CCCCC2)cc1 (stereo not given)
2%	.	0%	2.3%	NS(=O)(=O)c1ccc(CCNC(=O)C(=O)c2cn(CC(=O)N3CCOCC3)c3ccccc23)cc1

# More records:
Rango release inh	GLA inh pH 4.5	miR-21 FLuc	Rango complex inh	mol
-13%	3	-30%	2.0%	N#Cc1cccc(NC(=O)CC2CCCCC2)c1
-1%	-8	-19%	-1.4%	O=C(COc1ccc([N+](=O)[O-])cc1Cl)NCCc1ccccc1
31%	.	-13%	0.4%	CC1CCCC(NS(=O)(=O)c2cc3c(cc2Cl)NC(=O)CO3)C1C (stereo not given)
?	7	20%	?	Cc1cccc2cc3c(N)c(C(=O)N4CCCc5ccccc54)sc3nc12
-5%	-7	2%	1.2%	CC(=O)c1ccc(OCCCC(=O)Nc2ccc(C)c(S(=O)(=O)N(C)C)c2)cc1
-2%	8	-8%	-2.7%	C=C(C)Cn1c(=S)[nH]c2ccccc2c1=O
-6%	5	0%	-2.5%	CC(C)Cn1c(N)c(C(=O)COC(=O)c2cccnc2Cl)c(=O)n(C)c1=O
5%	.	.	-0.8%	O=C(COC(=O)c1cc(=O)[nH]c(=O)[nH]1)Nc1cccc(Cl)c1
5%	-25	-10%	0.7%	CSc1cccc(NC(=S)N(CCC(C)C)C(C)c2ccncc2)c1 (stereo not given)
4%	.	-10%	-2.6%	O=C(CNS(=O)(=O)c1ccccc1)N/N=C/c1ccccc1[N+](=O)[O-]

# Molecules above that contain a nitro group on carbon, in the order listed:
Rango release inh	GLA inh pH 4.5	miR-21 FLuc	Rango complex inh	mol
5%	.	.	-0.5%	Cc1ccc([N+](=O)[O-])cc1S(=O)(=O)Nc1cccc(S(=O)(=O)NC2=NCCC2)c1
-1%	-8	-19%	-1.4%	O=C(COc1ccc([N+](=O)[O-])cc1Cl)NCCc1ccccc1
4%	.	-10%	-2.6%	O=C(CNS(=O)(=O)c1ccccc1)N/N=C/c1ccccc1[N+](=O)[O-]

# Reprinted from the entries so far, three compounds:
Rango release inh	GLA inh pH 4.5	miR-21 FLuc	Rango complex inh	mol
5%	.	.	-0.8%	O=C(COC(=O)c1cc(=O)[nH]c(=O)[nH]1)Nc1cccc(Cl)c1
5%	-25	-10%	0.7%	CSc1cccc(NC(=S)N(CCC(C)C)C(C)c2ccncc2)c1 (stereo not given)
4%	.	-10%	-2.6%	O=C(CNS(=O)(=O)c1ccccc1)N/N=C/c1ccccc1[N+](=O)[O-]

# Quoted from the listing:
# Cc1ccc([N+](=O)[O-])cc1S(=O)(=O)Nc1cccc(S(=O)(=O)NC2=NCCC2)c1 in Rango release inh → 5%
# COc1ccc(NC(=S)NC2CCCCC2)cn1 in miR-21 FLuc → -27%
# O=C(Cn1nc(C(=O)O)c2ccccc2c1=O)Nc1cccc(S(=O)(=O)N2CCCCC2)c1 in Rango release inh → -12%
# N#CCCN(C(=O)COC(=O)CCc1nc2ccccc2c(=O)[nH]1)c1ccc(F)cc1 in Rango release inh → -1%
# O=C(COc1ccc([N+](=O)[O-])cc1Cl)NCCc1ccccc1 in Rango release inh → -1%
# Cc1ccc(S(=O)(=O)N2CCN(C(=O)c3ccc4c(c3)OCO4)CC2)cc1 in Rango release inh → 21%

# Next part.
Rango release inh	GLA inh pH 4.5	miR-21 FLuc	Rango complex inh	mol
?	.	-73%	?	O=C(O)c1ccc(N/N=C/c2ccc(-c3ccc(Br)cc3)o2)cc1
-22%	1	7%	6.1%	Cc1c(C(=O)N2CCCCC2C)sc2ncnc(N3CCc4ccccc4C3)c12 (stereo not given)
2%	6	-11%	-1.0%	O=c1cc(-c2cccc(Br)c2)nc(-c2ccccc2F)o1
12%	-30	-41%	2.1%	Cc1c2c(nc3ccccc13)CCC(C(C)(C)C)C2 (stereo not given)
7%	-2	10%	-0.2%	Cn1nc(C(C)(C)C)cc1C(=O)NNC(=O)c1ccc(C(F)(F)F)cc1
-8%	-4	3%	-1.1%	Cc1cc(/C=N\NC(=O)COc2cccc3cccnc23)c(C)n1-c1ccc(Br)cc1
-11%	.	-1%	?	CCCCn1c(N)c(N(CCOC)C(=O)c2ccc(-c3ccc([N+](=O)[O-])cc3)o2)c(=O)[nH]c1=O
.	-1	-19%	.	COc1ccc(CNC(=O)Cn2ncn3cccc3c2=O)cc1
10%	.	.	-0.5%	Cc1ccc(CC2(c3ccccc3)NC(=O)NC2=O)cc1 (stereo not given)
-1%	-3	-4%	-1.1%	CCOC(=O)c1sc(NC(=O)C(CC)Sc2nnc3c4ccccc4n(CC)c3n2)nc1C (stereo not given)
-1%	5	2%	0.7%	CCOC(=O)NC(=O)/C(C#N)=C(/C)N(C)C
-8%	7	-7%	?	COc1ccccc1-n1c(SCC(=O)OC(C)C)nc2cccnc21
5%	.	1%&-4%	2.8%	COc1ccc(CNC(=O)CN2C(=O)COc3ccc(S(=O)(=O)N4CCC(C)CC4)cc32)cc1
0%	-17	-4%	0.4%	CC(C)CNC(=O)NC(=O)COC(=O)c1cccc(NS(=O)(=O)c2ccc(F)c(F)c2)c1
-8%	5	3%	-0.2%	CN(C(=O)COC(=O)c1cc([N+](=O)[O-])ccc1Sc1ccccc1)C1CCS(=O)(=O)C1 (stereo not given)
-8%	-5	4%	3.6%	Cc1ccc(NC(=O)CSc2nnc(-c3ccccn3)n2N)cc1F
-1%	1	-47%	0.9%	O=c1ccc2ccc(OCc3nnc(-c4ccccc4Br)o3)cc2o1
0%	.	0%	-0.1%	Cc1ccc(S(=O)(=O)/N=C(/c2ccc(F)cc2)N(C)C)cc1
.	1	-40%	.	Cc1cc(C)n(-c2nc(-n3nc(C)cc3C)c3c4c(sc3n2)COC(C)(C)C4)n1
1%	-1	-13%	-5.8%	Cc1ccc(S(=O)(=O)N2CCC(C(=O)Nc3ccc4c(c3)OCO4)CC2)cc1
-17%	.	.	?	Cn1c(COc2ccccc2)nnc1SCC(=O)Nc1nnc(C2CC2)s1
-8%	8	-12%	3.2%	CC1(C)Cc2c(C#N)c(OCC(=O)c3ccc(Cl)cc3)nc(-c3ccco3)c2CO1
-3%	.	15%	0.1%	O=C(Nc1ccsc1C(=O)O)c1cccc(Oc2ccccc2)c1
0%	8	-1%	5.3%	CONC(=O)c1cc(OCC(F)(F)F)ccc1OCC(F)(F)F
4%	.	-10%	3.2%	Cc1cc(C)nc(Nc2cccc3ccccc23)n1
1%	.	-4%	0.3%	CCOc1ccccc1C(=O)NC1CCNCC1
-11%	.	.	-2.3%	CCCC[C@@H]1C=C(C(=O)O)[C@H](c2ccc(C#N)cc2)N1S(=O)(=O)c1ccc(C)cc1
-13%	.	-4%	-2.7%	CCOC(CNC(=O)c1ccc2c(c1)ncn2-c1ccccc1OC)OCC
-1%	.	.	?	COc1ccc(S(N)(=O)=O)cc1C(=O)OCC(=O)Nc1ncc(Cl)c(C)c1Cl

# Bioassay records as filed in PubChem BioAssay.

# These rows are one share of the data (hit frequency here may not be typical).
